D2 potentiator: potentiates the human D2 dopamine receptor allosterically. P14416. DiscoveRx D2 beta-arrestin cells, luminescence, 90 min; 100% = 57 uM dopamine signal. potentiation, % (test concentration not listed). 360,000 compounds, 0.23% hits; active = potentiation of 50% or more; inconclusive = 30% to 50%; inactive = 30% or less;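 further: compound concentration not given in the record; tested on top of an EC20 dose of dopamine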
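D2 cells co-treated with compound plus 50 nM dopamine (EC20) for 90 min at 37 deg C to detect potentiation. Beta-arrestin recruitment was read as enzyme-fragment luminescence after 1 h at ambient temperature. Full response was set by 57 uM dopamine.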
ClpP mod: qHTS Assay for Activators of ClpP | ATP-dependent Clp protease proteolytic subunit (Bacillus subtilis (strain 168)), P80244 | purified B. subtilis ClpP, FRET peptide cleavage, 20 min | Potency, µM (top dose mostly 57.5 µM), inactives show at the top dose activity change, negative = active | 340,000 compounds, 1.9% hits; active = well fitted falling curve with a large enough effect; inconclusive = small, poorly fitted or top-dose-only effect; inactive = no such curve, though single readings can be large or run the other way; further: potency means the concentration at half of the fitted maximal effect; the source files actives as falling curves though it sought activators and does not explain the sign; nearly all actives have a fitted effect of over 65% in size; many hits overshoot -100%
Target sequence (P80244 whole entry, looked up): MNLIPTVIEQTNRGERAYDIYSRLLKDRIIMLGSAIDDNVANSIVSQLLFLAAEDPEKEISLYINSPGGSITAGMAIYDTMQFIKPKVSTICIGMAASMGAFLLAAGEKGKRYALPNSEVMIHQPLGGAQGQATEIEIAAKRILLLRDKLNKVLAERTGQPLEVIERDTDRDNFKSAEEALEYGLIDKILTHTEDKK
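ClpP 10 microg/mL final, pH 8 Tris/KCl buffer with BSA, glycerol, Tween-20; compound pinned in; FRET-FV substrate; RT 20 min; Ex320/Em430; ΔFRET vs ADEP 5.8 microM, DMSO, no enzyme.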
Sfp PPTase inh: Sfp phosphopantetheinyl transferase inhibition. Potency, µM, for the others: max response, negative = inhibition, actives largely listed as inhibitors. 310,000 compounds, 3.5% hits. Biochemical Sfp PPTase activity, qHTS; active means well fitted inhibition curve with a large enough effect; inconclusive means small, poorly fitted or top-dose-only effect, or another doubt; inactive means no such curve, though single readings can be large or run the other way;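 further: the enzyme is Sfp with the accession as filed and its product quenches rhodamine fluorescence; potency means the concentration at half of the fitted maximal effect; 0% = enzyme reaction without inhibitor and -100% = no enzyme wells; top concentration of the series not given in the record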
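Compounds were incubated with enzyme (final 15 nM) for 15 min at room temperature before substrate addition started the reaction. Fluorescence at 525 nm excitation, 598 nm emission was recorded immediately and after 30 minutes.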
gsp antagonist: gsp mutant antagonism | Potency, µM (series often up to 76.9 µM), without a hit: at the highest dose activity change, negative = inhibition, actives largely listed as inhibitors | 340,000 compounds, 0.4% hits | gsp-mutant cells, cAMP HTRF, 30 min; control for the full effect not named in the record; active = falling curve of any shape with a large fitted effect; inconclusive = falling curve, mostly with a smaller effect; inactive = flat or rising curve; cell line not stated here;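 further: intracellular cAMP measured with PDE inhibitor Ro 20-1724 present during compound exposure; potency means the concentration at half of the fitted maximal effect; on the % scale 0 is the no-effect control and ±100 the full control effect; nearly all actives have a fitted effect of over 65% in size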
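Cells, 2000/well, grown 16–24 h in DMEM 10% FBS with 0.5 mg/ml G418, then compounds plus […] (300 uM addition stock), 30 min at 37C. cAMP read by HTRF (cAMP-d2 and anti-cAMP antibody-K in lysis buffer) after 30 min RT.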
Menin-MLL FL inh: inhibitors of human menin-MLL interaction, wild-type MLL peptide; FP activity change, % at 61.4 µM; 290,000 tested, under 10 active; Fluorescence polarization, fluorescein-MLL peptide displacement from menin; AID 1766; inconclusive = falling polarisation curve, or a change in total fluorescence; inactive = total fluorescence flat and polarisation flat or rising; no compound was filed as active; the % refers to the polarisation; negative = inhibition;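 further: % of control where 0% means no effect; inhibitors lower the polarisation; unlabelled MLL peptide was the positive control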
gsp ag: activates gsp, the McCune-Albright syndrome mutation; gsp mutant cells, cAMP HTRF, 30 min; control for the full effect not named in the record; Potency, µM (series often up to 76.9 µM), inactives show at the top dose activation (cAMP increase), hits mostly activators; 340,000 compounds, 0.13% hits; active = well fitted activation curve with a large enough effect; inconclusive = small, poorly fitted or top-dose-only effect, or another doubt; inactive = no such curve, though single readings can be large or run the other way; cell line not stated here;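 further: phosphodiesterase inhibitor Ro 20-1724 added with compounds to block cAMP breakdown; potency means the concentration at half of the fitted maximal effect; nearly all actives have a fitted effect of over 60% in size; about a fifth of the inactives were tested at one dose only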
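Cells stably selected in G418 were plated at 2000/well, grown 16-24 hr, then given compounds in DMSO with the PDE inhibitor […] (300 uM solution added) for 30 min at 37C; cAMP was read by HTRF.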
TRPV1 PAM: potentiators of human vanilloid receptor 1 (TRPV1); Q8NER1; TRPV1-expressing cells, Fluo-8 calcium influx, capsaicin EC20 potentiation; host cell line not named in the record; control for the full effect not named in the record; potentiation, % at 8.33 µM; 320,000 compounds, 0.02% hits; active means potentiation above 80%; inconclusive means 30% to 80%; inactive means below 30%; further: 0% is about no effect
Target sequence (Q8NER1 whole entry, looked up): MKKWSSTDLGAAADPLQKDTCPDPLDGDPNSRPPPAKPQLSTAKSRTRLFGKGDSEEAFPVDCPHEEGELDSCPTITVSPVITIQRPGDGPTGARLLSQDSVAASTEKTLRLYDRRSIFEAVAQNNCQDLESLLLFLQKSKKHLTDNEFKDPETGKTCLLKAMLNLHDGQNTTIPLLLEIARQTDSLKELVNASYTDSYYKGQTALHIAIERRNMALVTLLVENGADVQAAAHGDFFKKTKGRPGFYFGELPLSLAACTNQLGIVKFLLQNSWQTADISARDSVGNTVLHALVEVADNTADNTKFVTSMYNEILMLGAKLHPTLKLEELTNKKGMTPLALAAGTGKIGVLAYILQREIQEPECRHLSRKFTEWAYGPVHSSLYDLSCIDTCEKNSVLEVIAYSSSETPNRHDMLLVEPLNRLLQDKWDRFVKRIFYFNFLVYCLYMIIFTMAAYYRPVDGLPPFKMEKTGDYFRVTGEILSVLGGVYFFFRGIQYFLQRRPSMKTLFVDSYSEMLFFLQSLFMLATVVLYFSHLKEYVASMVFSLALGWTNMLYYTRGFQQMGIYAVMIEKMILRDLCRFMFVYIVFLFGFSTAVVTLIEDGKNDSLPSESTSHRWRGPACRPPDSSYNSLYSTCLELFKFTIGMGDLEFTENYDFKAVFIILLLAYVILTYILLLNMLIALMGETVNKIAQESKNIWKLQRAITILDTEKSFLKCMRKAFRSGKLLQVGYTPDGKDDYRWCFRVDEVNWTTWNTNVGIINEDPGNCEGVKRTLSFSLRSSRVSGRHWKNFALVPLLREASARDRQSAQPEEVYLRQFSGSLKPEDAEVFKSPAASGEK
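Fluo-8 calcium influx in TRPV1-expressing cells, kinetic read (ex 480/em 520 nm). Compound added and read 3 min for agonist activity, followed by capsaicin at EC20 final and 2 min further read for enhancement.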
Numbers without * were called inactive; u = inconclusive; x = not tested or not shown; [ ] = another dose, or the depositor's remark.

SMILES	Sfp PPTase inh	TRPV1 PAM	ClpP mod	D2 potentiator	gsp antagonist	gsp ag	Menin-MLL FL inh
Cc1ccc(OCCC(=O)OCC(=O)Nc2cc(C)cc(C)c2)cc1	1%	8	1.8%	-2	5%	16%	x
O=C1N(CC(=O)N2CCc3ccccc32)CCN1Cc1ccc(Cl)cc1	2%	-4	2.1%	-8	-18%	-17%	-1.1
CC(C)Cn1c(SCC(=O)NCCCN2CCCC2=O)nc2ccccc21	x	10	-3.1%	-8	10%	2%	x
CC(=O)c1cccc(NC(=O)c2cc(Cl)sc2Cl)c1	-5%	-24	1.3%	-19	-9%	0%	3.1
O=C(NCc1ccc2c(c1)OCO2)c1cc(-c2ccc(Cl)cc2Cl)on1	-12%	1	-0.3%	-4	19%	28%	1.6
CCCS(=O)(=O)c1c(S(=O)(=O)CCC)c2c(C)cccn2c1C(N)=O	-6%	-33	-13%	-11	-6%	21%	-0.8
COc1ccc(C(=O)NCC2CCCO2)cc1 (stereo not given)	1%	-9	-1.9%	-10	13%	5%[15.4 µM]	0.0
O=C(CSc1nc2ccccc2c(=O)n1Cc1ccccc1)Nc1ccc(Br)cc1C(=O)O	16%	9	x	1	u	-7%	1.0
Cc1cc2ccccc2cc(C)c1=O	15%	10	-5.0%	-4	0%	6%	1.9
O=C(CSC(=S)N1CCCCC1)c1c(F)cccc1F	-15%	-8	1.1%	-19	1%	5%	2.9
CCOCCCNC(=O)c1ccc(N(C)S(=O)(=O)c2ccc(OC)cc2)cc1	-5%	6	-0.5%	-8	1%	5%	1.7
C=CCNc1nc2c(c(=O)[nH]c(=O)n2C)n1CC(O)COc1ccc2ccccc2c1 (stereo not given)	-3%	4	0.1%	-9	4%	9%[15.4 µM]	0.5
Cc1ccc(-c2[nH]c3ccccc3c2SCCNC(=O)c2cc3ccccc3oc2=O)cc1	5%	4	22%	-4	-14%	u	-1.4
Cc1cc(=O)oc2cc(OCC(=O)N3CCN(c4ccccc4)CC3)c(Cl)cc12	12%	5	-2.3%	-3	8%	-61%[inhibitor]	-0.3
CCOC(=O)C1=C(C)NC2=C(C(=O)CC(C)(C)C2)C1c1ccc(N(C)C)cc1 (stereo not given)	2%	x	-13%	0	-16%	7%	11
O=C(O)c1cccc(S(=O)(=O)N2CCC(n3nnc4cc(C(F)(F)F)ccc43)CC2)c1	-8%	-7	x	-5	-2%	24%	x
Cn1c2ccccc2c(=O)c2cc(C#Cc3ccsc3)ccc21	-8%	11	4.4%	-7	u	u	1.9
NS(=O)(=O)c1ccc(CCNC(=S)Nc2ccccc2)cc1	3%	-11	-1.4%	-24	13%	8%	1.2
CSc1nc2n(n1)C(c1ccccn1)C1=C(CC(C)(C)CC1=O)N2 (stereo not given)	-3%	-6	25µM*	-12	6%	1%	-1.0
Cc1ccc(NC2=C(Cl)C(=O)OC2OC(=O)c2ccco2)c(C)c1 (stereo not given)	x	x	-2.6%	-15	-10%	-25%	x
COc1ccc(C(=O)NNC(=O)CSc2nnc(-c3ccc(O)cc3)n2C)cc1	12%	-7	-2.0%	-7	13%	u	20
Cc1cc(NC(=O)CSc2ncn(-c3ccccc3)n2)no1	1%	-9	0.3%	1	-5%[15.4 µM]	-34%[inhibitor]	1.1
Cc1ccc(S(=O)(=O)NC2OC(=O)C(Cl)=C2Cl)cc1 (stereo not given)	-2%	3	-1.2%	12	3%	0%	1.9
CCn1cc(C(=O)N[C@H](C(=O)NCCCOC)C(C)C)c(=O)c2cc3c(cc21)OCO3	15%	-11	3.7%	-5	4%	-3%	-2.6

Quoted at random: 3 records from the list, in no set order.
SMILES	Sfp PPTase inh	TRPV1 PAM	ClpP mod	D2 potentiator	gsp antagonist	gsp ag	Menin-MLL FL inh
Cc1ccc(S(=O)(=O)NC2OC(=O)C(Cl)=C2Cl)cc1 (stereo not given)	-2%	3	-1.2%	12	3%	0%	1.9
Cn1c2ccccc2c(=O)c2cc(C#Cc3ccsc3)ccc21	-8%	11	4.4%	-7	u	u	1.9
CCOC(=O)C1=C(C)NC2=C(C(=O)CC(C)(C)C2)C1c1ccc(N(C)C)cc1 (stereo not given)	2%	x	-13%	0	-16%	7%	11

The results go on.
SMILES	Sfp PPTase inh	TRPV1 PAM	ClpP mod	D2 potentiator	gsp antagonist	gsp ag	Menin-MLL FL inh
Cc1nn(CCC#N)c2nc(-c3ccccc3)cc(C(F)(F)F)c12	-12%	-1	32µM*	-14	u	4%	-0.8
Cc1ccc(CN2CC34C=CC(O3)C(C(=O)NCc3ccc5c(c3)OCO5)C4C2=O)cc1 (stereo not given)	25%	-9	-0.6%	0	6%	0%	2.1
CCOc1ccc(CCNC(=O)c2[nH]c(C)c(C(C)=O)c2CC)cc1OCC	3%	-2	x	-6	-7%	u	2.9
CCc1ccccc1Nc1nc(-c2cccnc2)cs1	-17%	6	-2.2%	-39	-4%	7%	-3.7
CCOCCCNC(=O)C(Cc1ccccc1)NC(=O)c1ccco1 (stereo not given)	20%	0	-0.8%	-7	7%	-7%	4.8
COC(=O)CSc1nnc2cc(C)c3ccccc3n12	-5%	-9	x	-8	8%	16%[15.4 µM]	-1.2
CCOc1ccc(NC(=O)C2CCC(CNc3c(N4CCOCC4)c(=O)c3=O)CC2)cc1 (stereo not given)	6%	6	-0.2%	-5	7%	-43%[inhibitor]	-0.5
O=C(NC1CC1)C1CCN(S(=O)(=O)c2ccc(Cl)c([N+](=O)[O-])c2)CC1	x	16	1.1%	0	u	22%	x
COc1ccc(N2CCN(C(=O)c3ccc(N4C(=O)NC5CC4(C)Oc4ccccc45)cc3)CC2)cc1 (stereo not given)	18%	-2	-0.6%	-3	-22%	-43%[inhibitor]	-0.9
Cc1cc2ccccn2c1C(=O)c1ccc([N+](=O)[O-])cc1[N+](=O)[O-]	-6%	1	x	5	7%	22%	-1.1
COCc1ccc(CN2CCCC(CO)(Cc3ccccc3)C2)o1 (stereo not given)	17%	-8	x	-12	-1%	9%	-1.7
CC1=C(C(=O)N2CCCCC2)C(c2cccs2)NC(=O)N1 (stereo not given)	3%	-5	-6.3%	1	3%	2%	-4.5
CSc1ccccc1NC(=O)CN(C)C(=O)/C=C/c1ccccc1	x	17	-1.8%	-11	6%	-4%	x
Cc1ccc(-c2cc3nc(-c4ccccc4)cc(N4CCOCC4)n3n2)cc1	-17%	-12	8.9µM*	2	-11%	14%	1.8
O=C1NC(=S)NC1Cc1ccc(O)cc1 (stereo not given)	x	x	x	-13	9%	-1%	x
CC(C)(C)c1ccc(C(=O)N2CCN(c3ccc(N4CCOCC4)nn3)CC2)cc1	x	-11	u	-17	0%	-1%	x
CCOC(=O)c1c(C)[nH]c(C)c1C(=O)COC(=O)/C=C/c1ccc(Cl)cc1	16%	-2	-1.4%	6	-17%	-6%	8.0
COc1ccccc1NC(=S)N(Cc1cccs1)C1CCCC1	9%	2	x	3	-9%	-6%[15.4 µM]	-0.9
COc1cccc(CC(=O)OC(C)C(=O)Nc2ncc(Cl)cc2Cl)c1 (stereo not given)	x	-15	x	-3	8%	-1%[15.4 µM]	x
COc1ccc(C(CNC(=O)c2cccc(NS(=O)(=O)c3ccccc3)c2)N2CCCC2)cc1 (stereo not given)	x	x	0.2%	-14	-6%	-4%	x
C=CCNc1ncnc2ccccc12	4%	12	-5.0%	2	-5%	-20%	u
CC(C)c1ccc(C2/C(=C(/O)c3ccc(F)cc3)C(=O)C(=O)N2CCCN2CCOCC2)cc1 (stereo not given)	26%	-8	-2.5%	-28	-5%	10%	0.0
COC(=O)Cn1cc(C(=O)C2CC2)c2ccccc21	11%	-15	-3.5%	2	8%	-9%	6.6
CCSc1nc2sc3c(c2c(=O)n1-c1ccc(OC)cc1)CCN(C)C3	-23%	u	x	-2	-7%	8%[15.4 µM]	u
COc1ccccc1-c1nnc(SCC(=O)c2c(N)n(C3CC3)c(=O)[nH]c2=O)n1C	x	-1	1.0%	-9	0%	u	x
O=C(CSc1nc2ccccc2c(=O)n1-c1ccc(F)cc1F)NC1CCS(=O)(=O)C1 (stereo not given)	x	x	-1.3%	-8	x	-91%[inhibitor]	x
COC(=O)c1ccc2c(c1)C(=O)N(C1CCCCC1)C2=O	17%	-1	-7.0%	-2	0%	-17%	0.9
CCC(=O)OC1CC(C)N(C(=O)c2ccccc2)c2ccc(C)cc21 (stereo not given)	-1%	-22	0.6%	-9	-6%	-20%	2.5
CCn1nc(C)c(NC(=O)/C=C/c2ccc(OC)c(COc3ccc(Cl)cc3Br)c2)c1C	3%	-11	-3.4%	-8	10%	20%	1.4
Cc1cc(SCc2ccccc2Cl)nc(=O)[nH]1	-2%	-11	-0.3%	2	2%	-12%	x
CCN(CC)CC(=O)NN(Cc1ccccc1)c1ccccc1	-27%	7	0.1%	-2	-9%	-3%[15.4 µM]	4.5
O=C(O)Cn1cnc2ccccc2c1=O	10%	11	0.0%	10	2%	-58%[inhibitor]	3.5
Cc1ccc(NC(=O)CSCC(=O)NC2CCCCC2)cc1	-12%	-18	1.6%	-24	-4%	8%	x
O=C(Cn1nnc(-c2ccncc2)n1)NCCc1ccccc1	5%	-20	-0.1%	-5	2%	10%	2.1
S=c1[nH]nc(C2CCCCC2)n1/N=C/c1cccs1	-1%	4	-5.5%	-11	-9%	-43%[inhibitor]	4.2
O=C(O)c1ccc(N2C(=O)C3ON(c4ccccc4)C(c4ccccc4F)C3C2=O)cc1 (stereo not given)	-17%	u	-0.8%	13	1%	-9%	1.2
CCCCC(CCC(=O)Nc1ccc(C(=O)OC)cc1)C(=O)O (stereo not given)	13%	14	2.9%	-10	3%	28%	-2.9
Cc1cccc(N2C(N)=NC(N)=NC23CCCCC3)c1	-2%	u	-1.9%	-6	u	3%	3.9
O=S1(=O)C[C@@H]2N=C(N/N=C/c3ccccc3)S[C@@H]2C1	4%	12	0.0%	-1	11%	-11%[15.4 µM]	2.5
